HCMV NEC inh = inhibitors of HCMV UL50-UL53 interaction, biochemical, HTRF; normalized percent inhibition; AID 1918969, 2023; 0.15% of 190,000 active; HCMV UL50-UL53 nuclear egress complex (human cytomegalovirus); inhibition, % (test concentration not listed);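 active means both replicates at 50% or more, plus weaker picks with an unusually low signal ratio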;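 further: stock transfer was 100 nL into about 20 µL; 0% = negative control wells and 100% = wells with untagged competitor protein; inactives centre near -12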
GIV Gai3 FP = inhibitors of GIV peptide binding to Galpha-i3, primary screen, biochemical, fluorescence polarization, FITC-GIV GBA peptide, rat Galphai3 | 90 min; active compounds read low; scaled: aluminum fluoride 0%, vehicle 100% | percent of control (FP), % (test concentration not listed) | 0.42% of 210,000 active | AID 1224905, 2016;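 active means replicate mean at 85% of control or lower, very high polarization wells dropped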;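 further: lower values mean more displacement of the GIV peptide from Galpha-i3; wells of about 15 µL received 100 nL stock; the first replicate is given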
Target sequence (P08753 whole entry, looked up): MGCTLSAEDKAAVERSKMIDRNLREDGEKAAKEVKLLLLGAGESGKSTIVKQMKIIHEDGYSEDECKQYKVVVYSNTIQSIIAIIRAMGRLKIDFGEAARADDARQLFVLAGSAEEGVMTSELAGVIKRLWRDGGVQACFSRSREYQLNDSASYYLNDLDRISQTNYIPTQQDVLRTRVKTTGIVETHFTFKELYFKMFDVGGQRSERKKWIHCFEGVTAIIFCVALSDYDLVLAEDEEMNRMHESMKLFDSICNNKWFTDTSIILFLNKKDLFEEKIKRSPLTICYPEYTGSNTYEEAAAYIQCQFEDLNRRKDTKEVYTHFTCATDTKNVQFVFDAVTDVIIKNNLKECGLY
Sa growth inh = S. aureus growth inhibition at 42 and 30 °C, primary screen, LtaS inhibitor project, RN4220, two temperatures | OD600, 20 h, 42 °C; active compounds read low | relative growth, % (concentration not given with the values) | 0.53% of 170,000 active;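 active means growth at 42 °C up to 50% and 20 or more points under that at 30 °C, or under 10% at both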;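 further: 300 nL library stock went into each well; scaled to the means of positive and negative controls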
Sa growth inh second temp = also measured in Sa growth inh; calls as there; relative growth, %; measured here: growth at 30 °C;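 optical density after 20 h as mean of two plates; 100% = untreated growth and lower means inhibition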
Active calls of the source: *; . = no result given; & = joins results of further samples. Rows were taken by chance, and some 0.85% of all compounds hit somewhere here.

Sequence of screens: HCMV NEC inh, GIV Gai3 FP, Sa growth inh, Sa growth inh second temp
Cc1nc2ccccc2n1C1CC(=O)N(c2ccc(F)cc2)C1=O (stereo not given)
 : -22, 99, 93, 84
COc1cccc2sc(N(Cc3cccnc3)C(=O)C3COc4ccccc4O3)nc12 (stereo not given)
 : ., 104, 87, 97
CC1CN(CC(=O)NC(=O)NCc2ccco2)CC(C)O1 (stereo not given)
 : -24, ., 95, 94
O=C(SCC(=O)N1CCOCC1)c1ccccc1
 : -38, ., 79, 83
CCCN(CCC)CCCNC(=O)C1CCN(c2nc3ccc(CC)cc3s2)CC1
 : -8, 102, 102, 86
O=C(Cn1sc2ccccc2c1=O)NCc1ccccc1
 : ., 97, 122, 97
O=C(Cn1c(=O)n(-c2ccc(CC(=O)NC3CC3)cc2)c(=O)c2ccccc21)Nc1ccc(F)cc1
 : 0, 98, ., .
COc1cc(CNC(=O)c2ccc3c(c2)N(C)C(=O)C2CCCCN32)cc(OC)c1OC (stereo not given)
 : ., 101, 81, 78
CNC(=S)NNc1nncc2ccccc12
 : -24, 108, 115, 96
Cc1cccc(C(=O)Nc2ccccc2OCc2cc(=O)n3ccccc3n2)c1
 : ., 106, 87, 94
CS(=O)(=O)NN1C(=O)c2ccccc2NC12CCCC2
 : -7, 106, 99, 102
Cc1nc(-c2ccc(C)c(S(=O)(=O)N3CCC(C(=O)Nc4cccc(-c5ccno5)c4)CC3)c2)no1
 : -27, 99, ., .
O=C(Nc1ccc(F)cc1)c1ccccc1OCc1nc(-c2ccccc2)no1
 : 4, 106, ., .
COc1ccc(-n2nc(C(=O)N3CCC(C)CC3)c3c4ccccc4n(C)c3c2=O)cc1Cl
 : -25, 101, 96, 90
Cc1c(Cl)cccc1NC(=O)CCn1c(=O)c2cccn2c2ccccc21
 : -12, 99, 90, 87

Of the compounds above, these have fluorine.
Sequence of screens: HCMV NEC inh, GIV Gai3 FP, Sa growth inh, Sa growth inh second temp
Cc1nc2ccccc2n1C1CC(=O)N(c2ccc(F)cc2)C1=O (stereo not given)
 : -22, 99, 93, 84
O=C(Cn1c(=O)n(-c2ccc(CC(=O)NC3CC3)cc2)c(=O)c2ccccc21)Nc1ccc(F)cc1
 : 0, 98, ., .
O=C(Nc1ccc(F)cc1)c1ccccc1OCc1nc(-c2ccccc2)no1
 : 4, 106, ., .

Further results.
Sequence of screens: HCMV NEC inh, GIV Gai3 FP, Sa growth inh, Sa growth inh second temp
COc1ccccc1NC(=S)N(C1CCCCC1)C(C)c1ccco1 (stereo not given)
 : ., 107, 97, 86
CC(=O)c1cccc(NC(=O)CC(c2ccc(C)cc2)N2Cc3ccccc3C2=O)c1 (stereo not given)
 : ., 105, 128, 89
COc1ccccc1-c1noc(-c2ccc(NCCc3ccccc3)c([N+](=O)[O-])c2)n1
 : -10, 101, 109, 84
N#Cc1nccnc1S(=O)(=O)c1cccs1
 : -46, 101, -0.7*, -0.8*
O=C(Cc1ccccc1)Nc1ccc(-c2nnc3n2CCCCC3)cc1
 : -22, ., 99, 91
CCOC(=O)c1c(C)oc2nc(C)nc(N(C)c3cc(Cl)c(OC)cc3OC)c12
 : -31, 105, 88, 82
Cc1cc(NCc2ccccc2Cl)n2cnnc2n1
 : 12, 102, 104, 92
CCOC(=O)Cc1c(C(=O)OCC)sc(N)c1C#N
 : -43, 107, 98, 85
CC1(C)Cc2cccc(C(=O)NCC3COc4ccccc4O3)c2O1 (stereo not given)
 : 2, 101, 81, 98
Cc1ccc(-c2cc(-c3ccccc3)nc(NN)n2)cc1
 : -5, 103, 21, 10
O=S(=O)(c1cccc(Cl)c1)N1CCc2nc(N3CCCCC3)ncc2C1
 : -13, 108, ., .
Cc1ccc(CCNC(=O)c2ccc3c(c2)N(Cc2cccc(C)c2)C(=O)c2ccccc2S3(=O)=O)cc1
 : -32, 100, 95, 101
COC(=O)c1sc2ncn(N)c(=O)c2c1C
 : -15, ., 85, 92
NC(N)=Nc1ccc2c(c1)OCCO2
 : -18, 95, 85, 80
Cn1c(=O)c(C#N)cc2c(=O)n3ccccc3nc21
 : -49, 107, 108, 94
O=c1[nH]c2c(n(C3CCCCC3)c1=O)CCC2
 : 13, ., 102, 101
CC1=C(C)CC2C(=O)N(c3ccc(N(C)C)cc3)C(=O)C2C1 (stereo not given)
 : ., 99, 92, 83
Cc1cccc(-c2noc(CCC(=O)N(C)C)n2)c1
 : -7, 103, 97, 91
c1ccc(CSc2nnc3c(n2)OC(c2ccncc2)Nc2ccccc2-3)cc1 (stereo not given)
 : -5, 93, 89, 91
O=C(CCC1N=C2c3ccccc3N=C(SCC(=O)Nc3ccc(F)cc3)N2C1=O)NCc1cccs1 (stereo not given)
 : ., 98, 101, 89
Cc1cc(C)nc(N2CCCC(C)C2)n1 (stereo not given)
 : -13, 98, 110, 83
O=C(NCc1ccccc1)c1nc[nH]c1C(=O)NCc1cccnc1
 : 13, 106, ., .
Cc1cc(C(=O)/C(C#N)=C/Nc2ccc(Cl)cc2)c(C(F)(F)F)o1
 : -7, 110, 105, 102
CC1c2nc3ccccc3n2C(CC(=O)NCc2ccccn2)C(=O)N1Cc1ccccc1 (stereo not given)
 : 2, 105, 99, 92
CCOc1ccccc1NC(=O)Cn1c(=O)n(Cc2cccs2)c(=O)c2cccnc21
 : -8, 102, 91, 94
COc1ccc2[nH]c3c(c2c1)CCn1c-3nc2ccccc2c1=O
 : -10, 104, 110, 69
CN(C)c1ccc(C(=O)OCC(=O)c2ccccc2Cl)cc1
 : -6, 99, 104, 101
Cn1nc(C(=O)Nc2cccnc2)c2ccccc2c1=O
 : -25, 112, 80, 80
COc1ccc(-c2cc(C(F)(F)F)nc(SCCC(=O)NCCc3ccccc3)n2)cc1
 : ., 99, 145, 96
COc1ccc(NC(=O)C(Cc2ccccc2)NS(=O)(=O)c2cccc3cccnc23)c(OC)c1 (stereo not given)
 : -10, 102, ., .
COc1cc(NS(=O)(=O)c2ccc(NC(=O)c3cccc(F)c3)cc2)nc(OC)n1
 : 9, 102, 98, 99
CCOC(=O)c1c(C)n(-c2ccc(C)cc2C)c2ccc(O)cc12
 : -4, 99, ., .
Cc1ccc(NC(=O)Cn2nc(-c3ccncc3)ccc2=O)cc1Cl
 : ., 108, 100, 82
Nc1cc(OC(=O)c2ccccc2F)nn1S(=O)(=O)c1ccc(F)cc1
 : -33, 95, ., .
O=C1CCSCC1
 : -3, ., 95, 89
COc1ccc(OCCCn2c(C3CCCO3)nc3ccccc32)cc1 (stereo not given)
 : -19, 107, ., .
C[C@@H](C(=O)Nc1ccc(S(=O)(=O)N2CCCC2)cc1)N1C(=O)C2CC=CCC2C1=O (stereo not given in full)
 : -4, ., 118, 89
Cc1noc2ncnc(NCCc3ccccc3)c12
 : ., 106, 83, 90
Cc1cc(C)cc(-n2ccnc2SCC(=O)Nc2nc3ccc(C)cc3s2)c1
 : ., 102, 125, 84
O=C(CCCc1nc(-c2ccccc2Cl)no1)Nc1ccccc1C(F)(F)F
 : -1, 102, 104, 90
CCC1(c2ccccc2)C(N)=Nc2ccccc21 (stereo not given)
 : 4, 107, 97, 87
CCN1c2cc(C)ccc2-n2cccc2C12CCN(S(=O)(=O)c1ccc(C)c(C)c1)CC2
 : -26, 105, ., .
Cc1cc(=O)[nH]c(Nc2ccccc2F)n1
 : 18, 103, ., .
O=C(CSCc1ccc(C(=O)O)cc1)Nc1ccccc1
 : ., 108, 79, 83
Cc1ccc(OCc2nc(C#N)c(N(C)C)o2)cc1
 : -2, 107, 95, 92
CCc1ccc2oc(C(=O)Nc3cc(Cl)ccc3OC)cc(=O)c2c1
 : -20, 106, 91, 86
CCN(c1ccccc1)S(=O)(=O)c1ccc2[nH]cc(C(=O)NCCC3=CCCCC3)c(=O)c2c1
 : ., 97, 122, 89
Cc1cccc(S(=O)(=O)N2CCSC2c2ccccc2)c1 (stereo not given)
 : -6, ., 95, 94
COC(=O)c1ccccc1NC(=O)Cn1nc(C)c2nn(-c3ccc(Cl)cc3)c(C)c2c1=O
 : ., 100&103, 78, 91
CCc1ccc(NC(=O)CN(c2ccc(C)cc2)S(=O)(=O)c2cccs2)cc1
 : -14, 105, 96, 90
CCC(CO)NCc1ccc2c(c1)c1ccccc1n2CC (stereo not given)
 : ., 107, 114, 73
COCCNC(=O)C12CC3CCC(CC(C3)C1)C2
 : -10, 103, 103, 95
COc1ccccc1Oc1nc2ccccc2nc1N1CCCC1
 : -13, 103, ., .
O=C(CSc1nc2ncccc2n2cccc12)NCc1ccccc1Cl
 : -24, 115, ., .
Cc1nn(C(C)C(=O)N2CCN(c3ccc(F)cc3)CC2)c(=O)c2c1sc1ccccc12 (stereo not given)
 : 8, 102, 104, 100
Cc1c2cnn(CC(=O)NCc3ccc(F)cc3)c(=O)c2c(C)n1Cc1ccccc1Cl
 : -18, 105, 115, 86
Cc1[nH]c2ccccc2c1SCCNC(=O)/C=C/c1ccc2c(c1)OCO2
 : ., 100, 143, 83
CCC(C)[C@H](NC(=O)c1ccco1)C(=O)O (stereo not given in full)
 : -38, 104, 100, 89
CCOc1ccccc1NC(=O)c1nc(S(=O)(=O)Cc2cccc(C)c2)ncc1Cl
 : 3, 106, 72, 81
COC(=O)c1c(C(=O)OC)c2n(c1C)Cc1ccccc1C2
 : -32, ., 106, 74

Results in Sa growth inh second temp (3 entries from above):
structure | Sa growth inh second temp
CCN(c1ccccc1)S(=O)(=O)c1ccc2[nH]cc(C(=O)NCCC3=CCCCC3)c(=O)c2c1 | 89
Cc1cccc(S(=O)(=O)N2CCSC2c2ccccc2)c1 (stereo not given) | 94
COC(=O)c1ccccc1NC(=O)Cn1nc(C)c2nn(-c3ccc(Cl)cc3)c(C)c2c1=O | 91

Additional compounds follow.
Sequence of screens: HCMV NEC inh, GIV Gai3 FP, Sa growth inh, Sa growth inh second temp
CN(C(=O)c1c[nH]c2ccc(S(=O)(=O)Nc3cccc(C(F)(F)F)c3)cc2c1=O)C1CCCCC1
 : ., 102, 80, 93
CCN1CSC(=S)N(Cc2ccc(OC)cc2)C1
 : -13, 106, 39, 0
COc1ccccc1CNC(=O)C1c2c(C)nn(-c3ccccc3)c2SCC(=O)N1c1ccc(Cl)cc1 (stereo not given)
 : -28, 103, ., .
CCOC(=O)c1sc2ccccc2c1NC(=O)c1coc2ccccc2c1=O
 : 6&-6, 100, 91, 87
CCCCNC(=O)CN1C(c2ccccc2)=CC(c2ccccc2)n2nnnc21 (stereo not given)
 : -14, 99, ., .
CN1CCN(C(=O)c2oc3ccccc3c2NC(=O)c2ccccc2)CC1
 : -10, 106, 95, 103
CCC(C)n1c(=N)c(C(=O)NCc2ccccc2)cc2c(=O)n3cc(C)ccc3nc21 (stereo not given)
 : -44, 107, 102, 89
COc1ccc(OC)c(S(=O)(=O)NC2CCN(Cc3ccccc3)CC2)c1
 : ., 117, 92, 96
Cc1nn2c(=O)cc(CSc3nc(-c4ccccc4C)nc4cc(=O)[nH]n34)nc2s1
 : -3, 94, ., .
CCc1cccc(C)c1Nc1c(-c2cccc(O)c2)nc2cnccn12
 : -20, 108, 107, 83
Cc1nn2c(=O)cc(COC(=O)c3ccccc3NC(=O)C(C)Oc3ccccc3)nc2s1 (stereo not given)
 : ., 99, 71, 86
O=S(=O)(NCCC1=CCCCC1)c1cccc2cccnc12
 : ., 111, 122, 84
O=c1cc(O)c2sc3nc(-c4ccccc4)ccc3c2[nH]1
 : -12, ., 84, 130
CCOc1ccccc1NC(=O)COC(=O)c1cc(Cl)cc(Cl)c1
 : -26, ., 109, 89
O=C(Nc1ccc(Cl)cc1)Nc1cc(C(=O)NCC2CCCO2)ccc1N1CC2CC(C1)c1cccc(=O)n1C2 (stereo not given)
 : -10, 101, 88, 75
COc1cccc(-n2c(SCC(=O)N3CCCCC3)nc3c([nH]c4ccccc43)c2=O)c1
 : ., 104, 102, 92
COc1ccc(S(=O)(=O)N2CCN(C)CC2)c(Cl)c1Cl
 : 3, 102, 98, 83
Cc1cc(-c2ccccc2)n2ncc(-c3ccccc3)c2n1
 : ., 103, 96, 91
COC(=O)c1cc(NC(=O)/C=C/C(=O)O)ccc1N1CCOCC1
 : -35, 99, 90, 83
Cc1nc2c(-c3ccc(F)cc3)c(C)nn2c(C)c1CCC(=O)NCCN1CCC(Cc2ccccc2)CC1
 : 4, 96, ., .
CC(Sc1nnnn1-c1ccccc1)C(=O)NC1CCCC1 (stereo not given)
 : -30, ., 103, 89
O=C(NCCc1ccccc1)C(=O)c1c[nH]c2ccccc12
 : -11, 101, ., .
COc1ccc(N(CCCN2C(=O)c3cccc4cccc(c34)C2=O)C(=O)c2cccs2)cc1
 : -10, 108, ., .
CC1CCN(C(=O)Cn2cc(SCC(=O)NCc3ccccc3)c3ccccc32)CC1
 : ., 103, 111, 85
CCN(CC)S(=O)(=O)c1ccc2oc(-c3nc(-c4ccncc4)no3)c(C)c2c1
 : -10, 97, ., .
CCC1Oc2ccc(C)cc2N(CC(=O)NCCCN2CCN(Cc3ccccc3)CC2)C1=O (stereo not given)
 : -19, 106, 102, 91
Nc1cc(-c2ccccc2)nn1-c1ccccc1
 : -16, 94, 101, 81
COc1ccc(CNC(=O)Cn2nc(N3CCN(c4ccccc4)CC3)ccc2=O)c(OC)c1
 : ., 103, 90, 81
COc1ccc(Oc2nc3c(c(=O)n(C)c(=O)n3C)n2Cc2ccccc2Cl)cc1
 : -20, 97, 97, 95
